# TRPML1 inh: inhibitors of human TRPML1 channel | Q9GZU1 | activity change, negative = inhibition, % (concentration not given with the values) | AID 624415 | 390,000 compounds, 0.02% hits | TRPML1-inducible cells, Ca2+ dye fluorescence, FDSS; active compounds read low; inhibition of EC80 agonist-evoked calcium signal; in the data active means activity change below about -50%; inconclusive means about -30% to -50%; inactive means above about -30%;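 also: stimulus is agonist 54-4 at its EC80 concentration; % is scaled to controls: 0 for no effect and ±100 for the full control effect; the text of the record puts the active cut at -80%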
# Target sequence (Q9GZU1 whole entry, looked up): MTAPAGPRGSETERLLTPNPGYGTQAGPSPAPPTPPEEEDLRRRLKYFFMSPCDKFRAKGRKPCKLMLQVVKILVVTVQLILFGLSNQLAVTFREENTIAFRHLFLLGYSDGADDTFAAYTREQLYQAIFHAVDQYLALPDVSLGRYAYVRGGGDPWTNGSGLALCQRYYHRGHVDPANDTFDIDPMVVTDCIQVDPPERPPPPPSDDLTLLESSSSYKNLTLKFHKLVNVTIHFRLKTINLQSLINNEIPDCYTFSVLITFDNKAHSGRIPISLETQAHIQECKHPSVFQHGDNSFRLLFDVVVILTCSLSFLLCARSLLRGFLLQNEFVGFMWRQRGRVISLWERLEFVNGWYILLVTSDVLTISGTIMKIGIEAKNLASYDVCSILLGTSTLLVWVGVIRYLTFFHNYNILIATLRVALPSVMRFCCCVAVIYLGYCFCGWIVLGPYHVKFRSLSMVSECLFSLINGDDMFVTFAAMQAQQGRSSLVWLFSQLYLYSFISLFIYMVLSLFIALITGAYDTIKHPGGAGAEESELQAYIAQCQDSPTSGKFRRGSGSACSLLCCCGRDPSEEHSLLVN
#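 TRPML1-DL cells, Tet-induced overnight (~16 h, 37 °C) at 1,500 cells/well, were loaded with Ca8 no-wash dye plus quencher for 45-90 min at room temperature. Compounds were pinned during FDSS kinetic reading; agonist 54-4 at EC80 (4 uM final) then added.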
# PINK1 expr mod: changes PINK1 expression. 410,000 compounds, 0.2% hits. Potency, µM (series often up to 76.6 µM), for inactives: at the top dose activation (PINK1 increase), usual class: activators. PINK1 immunofluorescence, high-content cytometry, 24 h; active = well fitted activation curve with a large enough effect; inconclusive = small, poorly fitted or top-dose-only effect; inactive = flat fitted curve, though single readings scatter; cell line not stated here;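 also: potency is read from the fitted curve at half-maximal effect; % of control where 0% means no effect; nearly all actives have a fitted effect of over 65% in size; a mitochondrial uncoupler was the plate control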
#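 PINK1 protein, normally rapidly degraded, was detected by immunofluorescence after 24 hour compound treatment of a stable cell line. Titration data (5 concentrations) came from laser-scanning cytometry, with CCCP-treated wells as controls.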
# CtBP-E1A inh: blocks the CtBP interaction with E1A; activity change, % (no concentration beside the values); 340,000 compounds, 0.49% hits; AlphaScreen GST-E1A/His-CtBP binding, 1536-well; active compounds read low; control for the full effect not named in the record; in the data active means activity change below about -65%; inconclusive means about -30% to -65%; inactive means above about -30%; also: % is scaled to controls: 0 for no effect and ±100 for the full control effect
#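 GST-E1A and His-tagged CtBP (125 nM each as 5X stock) were preincubated with pin-transferred compound for 2 h at 37 °C in the dark, then glutathione donor and nickel acceptor beads were added for 1 h before AlphaScreen reading.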
# D2 ag: activates the human D2 dopamine receptor; DiscoveRx PathHunter D2 beta-arrestin, luminescence, 90 min; 100% = 57 uM dopamine signal; activation, % (test concentration not listed); 360,000 compounds, 0.084% hits; AID 624465; in the data active = activation above about 40%; inconclusive = about 15% to 40%; inactive = below about 15%; also: compound concentration not given in the record; the text of the record calls up to 30% inactive
# Target sequence (P14416 whole entry, looked up): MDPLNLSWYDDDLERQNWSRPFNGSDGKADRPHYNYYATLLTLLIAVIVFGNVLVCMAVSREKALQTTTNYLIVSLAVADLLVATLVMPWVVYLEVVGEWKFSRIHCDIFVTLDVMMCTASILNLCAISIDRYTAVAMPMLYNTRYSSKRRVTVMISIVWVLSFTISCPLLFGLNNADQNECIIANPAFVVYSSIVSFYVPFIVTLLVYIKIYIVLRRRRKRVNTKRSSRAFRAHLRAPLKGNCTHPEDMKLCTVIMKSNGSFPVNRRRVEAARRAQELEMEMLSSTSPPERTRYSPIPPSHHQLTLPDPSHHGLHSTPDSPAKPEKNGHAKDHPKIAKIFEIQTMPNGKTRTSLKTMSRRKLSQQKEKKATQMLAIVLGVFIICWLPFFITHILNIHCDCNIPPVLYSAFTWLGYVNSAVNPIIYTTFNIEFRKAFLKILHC
#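 DiscoveRx PathHunter D2 beta-arrestin cells (2,100/well) attached overnight, then compound-stimulated 90 min at 37 C in HBSS/10 mM HEPES/0.1% Tween-20 buffer; beta-galactosidase complementation read by luminescence after 1 h at ambient temperature. Dopamine 57 uM final (EC100) as control.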
# TRPML1 ag: activates the human TRPML1 channel. AID 624414. 410,000 compounds, 0.12% hits. Q9GZU1. activation, % (concentration not given with the values). TRPML1-expressing cells, Ca2+ dye fluorescence, FDSS; host cell line not named in the record; reference of the full effect not given here; in the data active = activation above about 50%; inconclusive = about 30% to 50%; inactive = below about 30%; also: 0% is about no effect; the text of the record puts the active cut at 80%
#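 Calcium fluorescence on an FDSS kinetic reader gave the read-out. Tet-induced TRPML1-DL cells were plated overnight, dye-loaded (Ca8 with quencher, 45-90 min, room temperature, dark), then read 110 s after compound addition, and again 110 s after 4uM final 54-4 (EC80).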
# Six1-Eya2 blk: Six1/Eya2 interaction inhibition | Q15475+O00167 | AlphaScreen GST-Six1/His-Eya2 binding, biochemical; active compounds read low; control for the full effect not named in the record | activity change, % (concentration not given with the values) | 360,000 compounds, 0.56% hits | AID 651725; in the data active = activity change below about -65%; inconclusive = about -30% to -65%; inactive = above about -30%; also: % is scaled to controls: 0 for no effect and ±100 for the full control effect
#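 AlphaScreen with GST-Six1 and His-Eya2 (5X mix: 250 nM and 500 nM), glutathione donor and nickel acceptor beads; buffer 50 mM Tris pH 8.0, 300 mM NaCl, 1 mM TCEP; 1 h at 37 C in the dark.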
# * hit, by the source's call; ? = inconclusive; nt = not tested or not shown; & = joins results of further samples; [ ] = remark or other dose.
SMILES,TRPML1 inh,PINK1 expr mod,CtBP-E1A inh,D2 ag,TRPML1 ag,Six1-Eya2 blk
CCCCNc1c(-c2ccc(OC)c(Sc3ccc(OC)cc3)c2)nc2ccc(Cl)cn12,47,2.4%,6,5.3,0.2,-2
COc1ccc(-n2c(-c3ccco3)nc3c(cnn3-c3ccc(Cl)cc3)c2=O)cc1,-12,-0.4%,nt,nt,-0.9,nt
CCn1cc([N+](=O)[O-])c(C(=O)Nc2ccc(Cn3nc(C)cc3C)cc2)n1,2,-1.5%[38.3 µM],1,-1.3,-0.1,1
CCNc1nc(NCC)n2c(SCC(=O)Nc3cc(Cl)ccc3OC)nnc2n1,-5,4.8%,6,3.9,0.0,-11
CC(OC(=O)c1cc(O)c2ccccc2c1O)C(=O)Nc1ccc(C(N)=O)cc1 (stereo not drawn),20,3.2%,?,5.7,0.3,?
On1c(-c2ccccc2Cl)nc2ccccc21,-2,1.4%,-4,-3.5,0.9,-1
CCOC(=O)C1CCCN(C(=O)CCCn2nnnc2CN2CCOCC2)C1 (stereo not drawn),-8,0.1%,5,-1.0,-0.4,6
COc1ccc(OC)c(NC(=O)COC(=O)CCc2nc3ccccc3c(=O)[nH]2)c1,-7,1.2%,1,-0.9,0.0,-1
Cc1cccc(N2CCN(S(=O)(=O)c3c(C)[nH]c(C)c3C(=O)N3CCCC3)CC2C)c1 (stereo not drawn),3,0.9%,-3,3.1,-0.7,-5
CSCCC(NS(=O)(=O)c1ccccc1)C(=O)OC(C)C(=O)Nc1ccc(Cl)cn1 (stereo not drawn),-4,-0.8%,-11,-3.2,0.9,1
CCOC(=O)COc1coc(CN2CCN(c3ccc(F)cc3)CC2)cc1=O,?,0.7%,8,2.7,0.4,1
COCC(=O)N(Cc1ccccc1)c1ccccn1,-5,1.1%,1,-0.1,0.2,6
Cc1ccc(NC(=O)CCN2C(=O)c3ccccc3S2(=O)=O)cc1F,7,1.7%,15,-4.4,-0.2,4
CN(c1ccccc1C(=O)O)S(=O)(=O)c1ccc2c3c(cccc13)C(=O)N2,-6,2.2%,-3,-1.3,-0.5,-9
COc1cc(-c2cc(C(=O)OCC(=O)Nc3ccc4c(c3)OCO4)c3ccccc3n2)cc(OC)c1OC,1,-1.3%,-2,-0.1,-0.4,3
CC(C)CN1C=C2C(=O)C(C)(OC(=O)CCc3ccccc3)C(=O)C=C2C=C1c1ccc(C#N)cc1 (stereo not drawn),10,3.3%,-16,9.8,-0.2,-21
COc1ccc(C(=O)Nc2nc3nccc(-c4ccccc4)n3n2)cc1,-2,6.4%,7,0.7,0.1,1
Oc1ccc(Cl)cc1C=Nc1ccc(Br)cc1,41,-0.7%,0,0.7,0.1,-3
Cc1cccc(OCc2nc3ccccc3c(=O)n2N)c1,-9,0.1%,2,-4.3,-1.4,0
CCc1ccccc1NC(=O)CSc1nnc(-c2cc(C)[nH]n2)n1N,4,-0.2%,4,3.3,-0.9,2
CC(C)COc1ccc(C(=O)N2CCCCC2CCN2CCCCC2)cc1 (stereo not drawn),4,-0.6%,nt,nt,0.8,nt
O=S(=O)(Nc1cccc(-c2ccc(N3CCCCCC3)nn2)c1)c1ccc(C(F)(F)F)cc1,-10,-0.2%,1,-2.1,-1.2,-5
CCN(CC)C(=O)CSc1nc(-c2cccs2)cc(-c2cccs2)c1C#N,21,-1.7%,8,-4.9,0.8,11
O=C(NCC(=O)N(Cc1ccccc1)C(C(=O)NC1CCCCC1)c1ccco1)c1ccco1 (stereo not drawn),-8,0.3%,5,-3.5,0.1,-6
Cc1ccc2cccc(OC(=O)c3ccc4c(c3)OCCO4)c2n1,-1,2.9%,2,-0.2,-0.3,0
O=C(Nc1ccc(F)cc1)Nc1nnc([C@H]2C[C@H](O)[C@@H](CO)O2)s1,nt,0.7%,0,2.1,-0.5,-3
COc1ccc(OC)c(Cc2nnc(CCC(=O)N3CCC(N4CCCCC4)CC3)o2)c1,24,-1.6%,8,-2.1,-0.2,5
CCN(CC)c1nn2c(=O)c(C(=O)NCc3ccc(N(C)C)cc3)cnc2s1,36,1.0%,nt,nt,0.1,nt
COc1cc(N)c(Cl)cc1C(=O)OCC(=O)NCC1CCCCC1,9,-1.3%,-11,-1.1,1.4,-7
CCCC/S(C)=N/S(=O)(=O)c1ccc(C)cc1 (stereo not drawn),60,-0.1%,-4,-3.4,0.1,1
O=C(Nc1ccc(Br)cc1)c1cccc(N2C(=O)CCC2=O)c1,-4,22%,6,-6.9,-0.2,0
COCCn1c(C)cc(C(=O)COC(=O)c2cccc(O)c2)c1C,20,1.4%,-6,-1.3,0.4,-11
CC(=O)c1c(C)[nH]c(C(=O)Nc2cccc(S(=O)(=O)N(C)C)c2)c1C,1,14%,-5,-1.5,0.1,-9
Cc1cc(NCCCN2CCOCC2)n2c(nc3ccccc32)c1C#N,-5,2.9%,-20,2.2,2.6,-19
COc1ccc(C(=O)NC(CO)c2nnc(SCc3ccc(Cl)c(Cl)c3)n2C)cc1 (stereo not drawn),16,nt,-6,-1.5,0.5,-15
CSc1nnc(-c2ccc(NC(=O)CCc3ccccc3)cc2)n1C,-21,3.8%,1,-1.9,1.2,6
C=CCn1c(=N)n(CC(O)c2ccco2)c2ccccc21 (stereo not drawn),-10,-1.8%,-1,-1.5,0.8,4
CN(c1ccccc1)S(=O)(=O)c1ccc(NC(=O)c2ccc(F)cc2)cc1,28,5.5%,0,-4.3,0.9,20
COc1cc(O)c(C(CCN2CCCC2)c2ccc(N(C)C)cc2)c(OC)c1 (stereo not drawn),1&1,0.6%,?,-3.8,0.7&-0.3,?
O=C(CCCn1c(=O)c2cccn2c2ccc(F)cc21)NCc1ccc(Cl)cc1,12,4.2%,nt,nt,3.0,nt

# Only PINK1 expr mod and D2 ag, for 2 of the compounds above:
smiles	PINK1 expr mod	D2 ag
Cc1ccc2cccc(OC(=O)c3ccc4c(c3)OCCO4)c2n1	2.9%	-0.2
O=C(Nc1ccc(F)cc1)Nc1nnc([C@H]2C[C@H](O)[C@@H](CO)O2)s1	0.7%	2.1

# Remaining list, next part
SMILES,TRPML1 inh,PINK1 expr mod,CtBP-E1A inh,D2 ag,TRPML1 ag,Six1-Eya2 blk
CCOC(=O)C(CCC(C)=O)C(=O)c1ccccc1 (stereo not drawn),-4,-0.9%,8,-3.4,-0.9,6
COc1ccc(CNC(=O)CN(Cc2ccc(OC)cc2)C(=O)CCC(=O)Nc2ccccn2)cc1,-4,0.6%,0,-1.4,-0.5,-2
Cn1ccnc1SCC(=O)c1ccc(OC(F)F)cc1,9,-0.9%,4,-2.4,-0.2,9
Cc1cc(C(=O)Nc2ccccc2N2CCOCC2)c2ccccc2n1,2,-0.8%,4,-5.0,0.2,0
CN1C(=O)/C(=C\c2cccc(OCc3ccccc3)c2)SC1=S,8,0.4%,8,-5.3,0.3,2
CN1C(=O)C(CC(=O)NC2CCCCC2)SC1=Nc1ccccc1 (stereo not drawn),-15,2.0%,nt,3.7,0.4,1
O=C(O)C1CCN(C(=O)c2cc(F)cc3c2OCOC3)CC1,-5,2.9%,0,-2.9,0.4,-7
COc1ccc(NC(=O)C(c2ccc(OC)cc2)N(C)C(=O)c2cnccn2)cc1 (stereo not drawn),-4,-0.5%,-1,-11,-1.2,-4
O=C(COC(=O)c1cc[n+]([O-])cc1)Nc1ccc([N+](=O)[O-])cc1,14,-0.5%,0,-2.0,0.3,0
CN1CCN(c2ccc(S(=O)(=O)N3CCCCC3)cc2NC(=O)CSC(C)(C)C)CC1,0,0.3%,4,-1.0,0.0,-4
CCC(C)C(NC(=O)C1CCC(=O)N1C(=O)OCc1ccccc1)C(=O)NC(Cc1ccccc1)C(N)=O (stereo not drawn),-3,2.5%,0,4.9,0.2,-4
CC(=O)c1ccc(-n2ccnc2)cc1,21,0.7%,10,0.1,0.5,-2
Nc1c(Cl)c(Cl)nc(C(=O)OCC(=O)NC2CCCCC2)c1Cl,4,0.4%,-4,53*,-0.1,-9
O=S(=O)(c1ccc(Cl)cc1)c1nc(-c2ccco2)oc1N1CCOCC1,19,2.5%,3,-3.6,-1.2,-8
CCOC(=O)N1CCC(n2c(SCC(=O)OCc3ccccc3)nc3ccsc3c2=O)CC1,8,9.1%[38.3 µM],-7,-0.6,3.0,-7
COc1cc(CNc2ccc3[nH]c(=O)[nH]c3c2)cc(Cl)c1OCc1ccccc1F,7,11%,nt,nt,0.0,nt
CCO[C@@H]1OC(C(=O)NCc2nc3ccccc3[nH]2)=C[C@H](c2ccc(C(F)(F)F)cc2)[C@H]1CCCO,58,15%,-1,0.7,-0.6,-8
Cc1ccc(N(CCC(=O)O)S(=O)(=O)c2cccc(C(F)(F)F)c2)cc1,12,-1.9%,11,-3.2,-0.8,0
CCOC(=O)c1c(NC(=O)COC(=O)Cc2c[nH]c3ccccc23)sc(C(=O)N(C)C)c1C,-19,5.1%,-24,6.5,-0.9,-12
COc1ccccc1C1CC(=O)Nc2cc3c(cc21)OCCO3 (stereo not drawn),29,15%[38.3 µM],-3,0.1,0.6,-5

# An excerpt from above in order of the CtBP-E1A inh value, high to low:
Compound	CtBP-E1A inh
Cc1ccc(N(CCC(=O)O)S(=O)(=O)c2cccc(C(F)(F)F)c2)cc1	11
CCOC(=O)C(CCC(C)=O)C(=O)c1ccccc1 (stereo not drawn)	8
CN1CCN(c2ccc(S(=O)(=O)N3CCCCC3)cc2NC(=O)CSC(C)(C)C)CC1	4
O=C(COC(=O)c1cc[n+]([O-])cc1)Nc1ccc([N+](=O)[O-])cc1	0
COc1ccc(NC(=O)C(c2ccc(OC)cc2)N(C)C(=O)c2cnccn2)cc1 (stereo not drawn)	-1

# More structures
SMILES,TRPML1 inh,PINK1 expr mod,CtBP-E1A inh,D2 ag,TRPML1 ag,Six1-Eya2 blk
O=C1CC(N2CCc3ccccc32)C(=O)N1c1ccccc1 (stereo not drawn),-4,-0.1%,-3,0.7,0.4,4
O=C(NC1CC1)C1CCCN1C(=O)NC1CCCCC1 (stereo not drawn),21,1.8%,9,-3.3,1.3,2
CCOc1ccc(Nc2nc(Cc3nnc(SCC(=O)O)o3)cs2)cc1,-6,16%[38.3 µM],1,-0.7,0.2,-15
Cc1ccc(S(=O)(=O)N2CCOC23CCN(S(=O)(=O)c2cccs2)CC3)cc1,21,-0.5%,-2,-3.5,1.2,3
C#CCOCCOCCOCCNc1nc(N2CCN(C(=O)CCCCCCCCCCNC(=O)Cn3cc(C[C@@H](C)O)nn3)CC2)nc(N2CCN(C(=O)CCCCCCCCCCNC(=O)[C@H](CCCN=C(N)N)n3cc(C[C@@H](C)CC)nn3)CC2)n1,-1,-0.3%,-15,5.6,-0.5,-24
COc1cccc(C2=NOC(C(=O)N3CCN(Cc4ccccc4)CC3)C2)c1OC (stereo not drawn),3,4.4%,6,-0.4,0.0,6
COc1ccc(C)cc1NC(=O)C1CCN(S(=O)(=O)c2cccc3cccnc23)CC1,-3,3.7%,-2,0.9,-0.3,-4

# Entries above that bear a hit mark in D2 ag.
canonical_smiles,TRPML1 inh,CtBP-E1A inh,D2 ag,Six1-Eya2 blk
Nc1c(Cl)c(Cl)nc(C(=O)OCC(=O)NC2CCCCC2)c1Cl,4,-4,53*,-9

# Assay outcomes as filed in PubChem.
